NPYLR7 agonist – agonists of mosquito NPYLR7 receptor, primary screen, cell-based, Aedes aegypti, calcium fluorescence, mosquito biting behavior; activation, % at 10 µM; AID 1259423, 2018; HEK293T NPYLR7/Galpha15, GCaMP6s calcium fluorescence; 270,000 compounds, 0.15% hits; in the data active = activation above about 40%;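 also: 0% = vehicle and 100% = reference agonist at the receptor; some compounds past the cut are filed as inactive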
NPYLR7 agonist max-min – recorded beside NPYLR7 agonist, whose call it bears; activation, %; measured here: Max-Min RFU normalised activation; some inactives read as strong as hits;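 span of the calcium signal over five minutes; 0% = vehicle and 100% = native peptide agonist; compound fluorescence can raise it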
* hit, by the source's call; & = joins results of further samples. Only part of the results is shown; count on the stated rates, not on these rows.

SMILES	NPYLR7 agonist	NPYLR7 agonist max-min
Cc1csc(SCc2cc(=O)c(OC(=O)Cc3ccc(Cl)cc3)co2)n1	14	3
COc1ccc2oc(=O)c(-c3csc(Nc4ccc(Cl)cc4Cl)n3)cc2c1	-3	-7
Cc1ccc(Cl)c(Oc2cc(N3CCN(C(=O)c4cccc([N+](=O)[O-])c4)C(C)C3)ncn2)c1 (centres undefined)	15	18
CSc1ccccc1C(=O)Nc1cc(C2CC2)nn1-c1nc(C)cc(=O)[nH]1	5	6
CC(C)C(C(=O)O)N1C(=O)C2C3C=CC(C3)C2C1=O (centres undefined)	-1	-6
CCCOC(=O)N1CCCn2nc(-c3nc4ccc(OC)cc4[nH]3)cc2C1	-20	-20
FC(F)(F)c1nc(N2CCCCC2)nc2c1CCCCC2	3	4
CN(C)c1nc2c(c(=O)[nH]1)CCN(C(=O)CCC(F)(F)F)C2	2	2
CCOC(=O)CSc1nc(-c2cc3c(cc2Cl)OCO3)[nH]c1-c1ccccc1	3	1
CCCCn1cnc2c1c(=O)[nH]c(=O)n2CCCC	-1	0
Cc1ccccc1C1c2ccsc2CCN1C(=O)CN(CC1CCCO1)C(=O)C1C[C@H]1c1ccccc1 (some centres undefined)	20	20
Cc1ccc(CN(C)C(=O)Cn2nnnc2C)o1	25	19
COc1ccc(CN(C(=O)c2cccc(F)c2)C2CC2)cc1OCc1nc(CO)cs1	12	10
C=CCn1cc(C(=O)NCCc2ccccc2OC)c2nn(-c3ccccc3)c(=O)c-2c1	6	5
CCCCCc1ccc(C(=O)N2CCc3c([nH]c4ccc(OC)cc34)C2COCc2ccccc2)cc1 (centres undefined)	2	-2
COc1ccc(-c2cc(NC=O)c3ncc(-c4ccc(C(C)=O)cc4)n3c2)cn1	-1	-3
O=C(OCc1nc(-c2cccnc2)no1)c1cc(Br)c[nH]1	1	5
COCC(=O)NCCCn1nc(-c2cccnc2)ccc1=O	9	-1
Cc1cn2c3c(=O)n(CCN4CCOCC4)c(=O)n(C)c3nc2n1-c1ccccc1Cl	3	2
COC(=O)CCCCC(=O)NC1CC2CCC(C1)N2Cc1ccc2c(c1)OCO2 (centres undefined)	-2	-8
CS(=O)(=O)c1ccccc1S(=O)(=O)N1CCC(c2cn(Cc3cccc(F)c3)c3ccccc23)CC1	2	-6
O=C(NC(c1nccs1)C1CC1)c1ccc2nc(C(F)F)[nH]c2c1 (centres undefined)	2	28
CS(=O)(=O)c1ccccc1N1CCC2(CCOC2)C1 (centres undefined)	6	3
CCOCCCN(CC(=O)N(Cc1ccc2c(c1)OCO2)Cc1sccc1C)C(=O)c1ccccc1F	-9	-18
CCc1ccc(-c2noc(Cn3cnc4c(cnn4-c4cc(Cl)ccc4C)c3=O)n2)cc1	-5	-8
SMILES	NPYLR7 agonist	NPYLR7 agonist max-min
Oc1oc(-c2cccc3ccccc23)nc1C=Nc1cccc(Cl)c1	3	-4
CCCC(C)NC(=O)Nc1c(C)cc(C)cc1Cl (centres undefined)	-5	-2
CC(=O)c1c(-c2ccccc2)nc2nonc2c1N=CN(C)C	-7	-14
COC(=O)[C@@H]1Cc2ncn(C)c2CN1S(=O)(=O)c1ccc(NC(C)=O)cc1	-4	-9
CN(C)c1ccc(C=C2N=C(c3ccc4c(c3)OCO4)OC2=O)cc1	20	19
CC(NC(=O)CC(c1ccc(Cl)cc1)c1c[nH]c2ccccc12)c1ccccc1 (centres undefined)	4	13
CCOc1ccc(C(=O)Nc2ccc3oc(-c4ccccc4F)nc3c2)cc1[N+](=O)[O-]	1	5
CCCCN(C=O)c1c(CC)nc2ccc(C(=O)NCc3ccccc3OC)cn12	12	-3
CCC(C)NC(=O)c1cc(Br)c(C(=O)NC(C)CC)cc1Br (centres undefined)	-3	-4
COC(c1ccccc1)c1nnc(CCC(=O)NCCc2ccc(Cl)cc2)o1 (centres undefined)	1	-2
COc1cc(C)ccc1CNC(=O)c1c(C)nc(C(C)C)[nH]c1=O	3	2
Cc1cc(C)c(CNC(=O)NC(c2nccn2C)C(C)C)c(=O)[nH]1 (centres undefined)	-6	-7
CCCCN(CC(=O)N(CCc1c[nH]c2ccccc12)Cc1ccc(C(C)(C)C)cc1)CC(O)Cc1ccccc1 (centres undefined)	0	2
COc1ccc(-c2cnn(C(C)(C)C(=O)NCC(C)C)c2)cc1OC	4	4
C=CCCC(O)CN(CCCOC)Cc1ccc(C)s1 (centres undefined)	19	26
CCOC(=O)C1=C(C)C2C(=O)NC(CN3CCc4cc(OC)c(OC)cc4C3)=NC2S1 (centres undefined)	3	19
CCOCCOc1nc(-c2ccc(F)cc2)n(-c2ccc(NS(=O)(=O)c3ccc(C)cc3)cc2)n1	9	13
C=CCn1c(=O)c2c(nc3n(C(C)C)c(C)c(C)n23)n(C)c1=O	-2	15
O=c1[nH]nc(CCNc2ccc3ccc(F)cc3n2)[nH]1	3	0
Cc1[nH]c2ccccc2c1SCCNC(=O)c1ccc(S(=O)(=O)N(C)C)cc1	0	15
CN(C)CCCNc1c2c(nc3ccccc13)CCC2	6	5
Cc1nn(C)cc1CNC(=O)c1cnn2c(C(F)F)cc(C3CC3)nc12	10	0
O=C(CCn1cnc2ccccc2c1=O)N1CCC2(CCCN(Cc3ccccc3F)C2)C1 (centres undefined)	14	3
CC(C)c1nnc(NC(=O)C23CC4CC(CC(C4)C2)C3)s1	2	2
CC(Cl)C(=O)N1CCN(c2cc(Oc3cccc(Cl)c3)ncn2)CC1C (centres undefined)	1	3
SMILES	NPYLR7 agonist	NPYLR7 agonist max-min
O=C(c1cc(-c2ccccc2F)nn1-c1ccc([N+](=O)[O-])cc1)N1CCN(c2cccc(Cl)c2)CC1	-2	7
CC(C)c1ccc(CNc2nc(NCC3CC3)nc3ccsc23)cc1	6	2
Cc1cn2c3c(=O)n(Cc4ccccc4Cl)c(=O)n(C)c3nc2n1CCCN(C)C	6	4
CCc1nc2ccc(C(=O)NCCCN3CCCC3=O)cn2c1N(C)CCC(C)C	0	-12
CN1CC(C(=O)NC2(c3nccs3)CCCC2)CC1=O (centres undefined)	19	14
O=C(NCCc1ccc(Cl)cc1)c1cccc(OC(F)F)c1	-1	-3
CC(NC(=O)CCc1nc2sc3c(c2c(=O)[nH]1)CCCC3)c1ccccc1Cl (centres undefined)	9	9
Cc1nc2ccccc2n1CCC(=O)N1CCn2c(C(N)=O)cnc2C1	10	6
CCOC(=O)c1[nH]c(C)c(C(=O)CN(C(=O)c2cccc([N+](=O)[O-])c2)C2CC2)c1C	-3	2
CC(C)NC(=O)CN(C)Cc1sc2ccccc2c1Cl	0	-1
COc1cc2c(cc1OC)CN(C=Nc1sc3c(c1C#N)CC(C)(C)NC3(C)C)CC2	2	44
COc1ccc2n[nH]c(CN(C)Cc3ccc(-n4cccn4)cc3)c2c1	1	0
COc1cccc(OCCn2cnc3ccccc32)c1	-3	-2
Cn1cc(CN2CCCC(CNC(=O)c3cccs3)C2)c(-c2ccccc2)n1 (centres undefined)	-6	-8
Cn1c(=O)c2c(nc(CN3CCCCC3)n2Cc2cccc3ccccc23)n(C)c1=O	16	10
CCCCNC(=O)NC(Cc1ccccc1)c1nnc(SCc2cccc(C)c2)n1-c1ccc(C)cc1 (centres undefined)	15	22
COc1ccc2nc(N(CC3CCCO3)C(=O)C3CCCN3S(C)(=O)=O)sc2c1 (centres undefined)	2	1
CCn1c(C2CCN(Cc3cnc(N4CCCCC4)nc3)CC2)n[nH]c1=O	-3	-5
COc1ccc(CCN(C)c2cc(C(C)(C)C)nc(SCc3ccc(C(=O)NCc4ccccn4)cc3)n2)cc1OC	7	7
Cn1cc(NC(=O)c2ccccc2Sc2ccc(S(C)(=O)=O)cc2)cn1	-4	-5
Cc1csc(C2C(N)=NC(SCc3nc(C)no3)=C(C#N)C23CCCCC3)n1 (centres undefined)	-4	-6
COc1ccc(N2C(=O)NC(c3cccs3)C(C(=O)OC(C)C)=C2C)cc1 (centres undefined)	8	2
CC(C)(C)c1cc2nc(-c3ccccc3F)cc(C(=O)N3CCN(Cc4ccccc4)CC3)n2n1	8	16
CCCCCCc1ccc(C(=O)Nc2ccc(-n3nc(OCC(C)C)nc3-c3ccc4c(c3)OCO4)cc2)cc1	1	13
Cc1ccccc1-c1noc(-c2ccc(NCc3ccccn3)nc2)n1	-8	-10

Given with two lines to a compound: entries from further up.
Values run as follows: NPYLR7 agonist, NPYLR7 agonist max-min
COc1cccc(OCCn2cnc3ccccc32)c1
    -3, -2
CCOC(=O)c1[nH]c(C)c(C(=O)CN(C(=O)c2cccc([N+](=O)[O-])c2)C2CC2)c1C
    -3, 2

Back to the main list, repeating the 2 entries before the break.
SMILES	NPYLR7 agonist	NPYLR7 agonist max-min
CCCCCCc1ccc(C(=O)Nc2ccc(-n3nc(OCC(C)C)nc3-c3ccc4c(c3)OCO4)cc2)cc1	1	13
Cc1ccccc1-c1noc(-c2ccc(NCc3ccccn3)nc2)n1	-8	-10
COC(=O)c1ccc(Cn2c(C)c(C(=O)NCc3ccc([N+](=O)[O-])cc3)sc2=O)o1	7	4
O=S(=O)(c1cccs1)N1CCN(S(=O)(=O)c2ccc(F)c(F)c2F)CC1	1	11
CN(C)CCN(CC1CCCN(Cc2ccccc2F)C1)C(=O)c1ccsc1 (centres undefined)	1	-2
COc1ccc(CN2CCC(CO)(CCCc3ccccc3)CC2)c(F)c1	5&18	1&4
C=CCN1Cc2cc(OC)c(OC)cc2C2(CCCC2)C1	-3	-4
O=c1c(C=Nc2ccccn2)c(C(F)(F)F)[nH]n1-c1ccccc1	0	-1
CCOCCOc1nc(-c2ccccc2C)n(-c2cccc(NC(=O)c3ccc(OC)cc3)c2)n1	5	7
O=C(O[C@@H]1Cc2c(O)cc(O)cc2O[C@@H]1c1cc(O)c(O)c(O)c1)c1cc(O)c(O)c(O)c1	-10&-9	-14&-12
CCOC(=O)C1CCCN(C(=O)C2COC3(CCCCC3)N2C(=O)c2ccccc2Cl)C1 (centres undefined)	15	20
CC(OC1CCCC1)C(=O)OC(c1nccn1C)C(C)C (centres undefined)	12	8
COc1cccc(CN(CC(O)COCc2ccccc2)CC2CC(c3ccc(Cl)cc3)=NO2)c1 (centres undefined)	-2	2
O=C1CCC2(O1)OC(=O)c1ccccc12 (centres undefined)	3	10
O=C(Nc1c(O)cccc1F)c1ccc(Cl)cn1	3	43
Cc1sc2nc(Cc3csc(C(C)C)n3)[nH]c(=O)c2c1C	0	-2
COc1ccc(S(=O)(=O)Oc2ccccc2CN(CCN(C)C)C(=O)C(C)C)cc1	22	21
CC(C)NC(=O)NC(=O)COC(=O)c1cc2c(Cl)cccc2s1	-2	-2
CCn1cnc2c(nnn2CC)c1=O	2	8
CCSc1ccc(-c2ccccc2)nn1	-1	-2
CCN(Cc1ccncc1)S(=O)(=O)c1cccc(Br)c1	1	1
Cc1ccccc1C1c2ccsc2CCN1C(C)C(=O)N1CCCN(C(=O)c2cccs2)CC1 (centres undefined)	1	-5
CCN(CC)CCn1c2ccccc2n2nc(C)c(C(C)=O)c12	5	2
CC(C)Cc1nc(N2CCCN(C(=O)/C=C/c3ccccc3)CC2)c2c(-c3cccc(Oc4ccccc4)c3)noc2n1	13	2
CC(=O)Nc1cccc(NC(=O)CSc2ncc(CO)n2CC(=O)NC(C)C)c1	0	-2
Cc1ccc2nc(C)c(NC(=O)c3c(F)cccc3F)c(=O)n2c1	5	1
Cc1ccc2oc(=O)n(C3CCN(C(=O)c4c(F)cccc4F)CC3)c2c1	4	3

Molecules above containing a tert-butyl group (three):
SMILES	NPYLR7 agonist	NPYLR7 agonist max-min
CCCCN(CC(=O)N(CCc1c[nH]c2ccccc12)Cc1ccc(C(C)(C)C)cc1)CC(O)Cc1ccccc1 (centres undefined)	0	2
COc1ccc(CCN(C)c2cc(C(C)(C)C)nc(SCc3ccc(C(=O)NCc4ccccn4)cc3)n2)cc1OC	7	7
CC(C)(C)c1cc2nc(-c3ccccc3F)cc(C(=O)N3CCN(Cc4ccccc4)CC3)n2n1	8	16

No new results follow: 7 of the compounds above.
SMILES	NPYLR7 agonist	NPYLR7 agonist max-min
CCN(Cc1ccncc1)S(=O)(=O)c1cccc(Br)c1	1	1
Cc1ccccc1C1c2ccsc2CCN1C(C)C(=O)N1CCCN(C(=O)c2cccs2)CC1 (centres undefined)	1	-5
CCN(CC)CCn1c2ccccc2n2nc(C)c(C(C)=O)c12	5	2
CC(C)Cc1nc(N2CCCN(C(=O)/C=C/c3ccccc3)CC2)c2c(-c3cccc(Oc4ccccc4)c3)noc2n1	13	2
CC(=O)Nc1cccc(NC(=O)CSc2ncc(CO)n2CC(=O)NC(C)C)c1	0	-2
Cc1ccc2nc(C)c(NC(=O)c3c(F)cccc3F)c(=O)n2c1	5	1
Cc1ccc2oc(=O)n(C3CCN(C(=O)c4c(F)cccc4F)CC3)c2c1	4	3

The list continues.
SMILES	NPYLR7 agonist	NPYLR7 agonist max-min
Cc1ccc(-n2nc(-c3ccc(Cl)cc3)cc2NC(=O)CCCOc2ccccc2)cc1	5	1
Cc1cccc(C2SCC(=O)N(CC(=O)Nc3ccccc3)c3c2c(-c2ccccc2)nn3-c2cccc(C)c2)c1 (centres undefined)	16	18
Cc1nn(C)c(Cl)c1S(=O)(=O)N1CCCC(N(C)CCc2ccccn2)C1 (centres undefined)	18	10
CCC(C)OC(=O)C1=C(C)NC2=C(C(=O)CC(c3ccc(Cl)cc3)C2)C1c1ccc(Cl)cc1 (centres undefined)	0	-3
O=C(COc1coc(CN2CCCc3ccccc32)cc1=O)NCc1ccccc1	-1	-3
Cc1noc(CN(C)C(=O)c2cccc(Cn3cccn3)c2)n1	1	0

High-throughput results as filed in PubChem BioAssay.
